Bioassay records as filed in PubChem BioAssay.
NPYLR7 ag: mosquito NPYLR7 agonism; HEK293T NPYLR7/Galpha15, GCaMP6s calcium fluorescence; 270,000 compounds, 0.15% hits; activation, % at 10 µM; in the data active means activation above about 40%;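 further: 0% = vehicle and 100% = reference agonist at the receptor; some compounds past the cut are filed as inactive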
NPYLR7 ag max-min: also measured in NPYLR7 ag; calls as there; activation, %; measured here: Max-Min RFU normalised activation; some inactives read as strong as hits;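 span of the calcium signal over five minutes; 0% = vehicle and 100% = native peptide agonist; compound fluorescence can raise it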
An asterisk follows results filed as active; & = joins results of further samples.

Each structure is followed by: NPYLR7 ag | NPYLR7 ag max-min
COc1ccc2[nH]c(CNC(=O)c3cccc(-n4cccn4)c3)cc2c1
  1 | 3
Cc1c(C(NC(=O)C(C)S(C)(=O)=O)C(C)C)oc2ccccc12 (configuration not stated)
  -4 | -3
CC(C)(C)c1cc(CN2CCN(c3nccc4ccccc34)CC2)[nH]n1
  12 | 9
Cc1cc(C)nc(Nc2cccc3ccccc23)n1
  2 | 2
COc1ccc(N2CCN(Cc3ncccc3F)C(C)C2)cc1 (configuration not stated)
  5 | 2
CN(Cc1ccc2nonc2c1)C(=O)C1CCC(=O)N(CCCc2ccccc2)C1 (configuration not stated)
  -1 | -3
Cc1nnc(SCCCn2cc3ncccc3c2O)s1
  16 | 8
NCCCC(N)CC(=O)NCC1NC(=O)C(CO)NC(=O)C(N)CNC(=O)C(C2CCN=C(N)N2)NC(=O)C(C=NC(N)=O)NC1=O (configuration not stated)
  -4&-3 | -8&-9
Cc1nc(N)ncc1C(=O)N1CCCC(CCc2cccc(C(F)(F)F)c2)C1 (configuration not stated)
  0 | 3
O[C@H]1CN(C/C=C/c2ccccc2)C[C@@H]1N1CCN(c2ccccn2)CC1
  3 | 0

Overlap with the part before: 6 compounds, then new ones.
Each structure is followed by: NPYLR7 ag | NPYLR7 ag max-min
COc1ccc(N2CCN(Cc3ncccc3F)C(C)C2)cc1 (configuration not stated)
  5 | 2
CN(Cc1ccc2nonc2c1)C(=O)C1CCC(=O)N(CCCc2ccccc2)C1 (configuration not stated)
  -1 | -3
Cc1nnc(SCCCn2cc3ncccc3c2O)s1
  16 | 8
NCCCC(N)CC(=O)NCC1NC(=O)C(CO)NC(=O)C(N)CNC(=O)C(C2CCN=C(N)N2)NC(=O)C(C=NC(N)=O)NC1=O (configuration not stated)
  -4&-3 | -8&-9
Cc1nc(N)ncc1C(=O)N1CCCC(CCc2cccc(C(F)(F)F)c2)C1 (configuration not stated)
  0 | 3
O[C@H]1CN(C/C=C/c2ccccc2)C[C@@H]1N1CCN(c2ccccn2)CC1
  3 | 0
CCn1nnc2c(Nc3ccc(Br)cc3C)ncnc21
  7 | 12
COc1cc(-c2cccnc2OC)cc(OC)c1OC
  19 | 12
COc1ccc(OC(F)(F)F)cc1CC1(C)C(=O)Nc2ccc(C)cc21 (configuration not stated)
  4 | 0
Cc1c(C(=O)N2CCN(C(=O)C3CC3)CC2)cc(-c2ccc(Cl)cc2)n1-c1ccccc1F
  -6 | -1
Cc1cc(/C=N\NC(=O)COc2cccc3cccnc23)c(C)n1-c1ccc(Br)cc1
  11 | 22
Cc1cc(C)cc(NNC(=O)c2ccc(F)cc2F)c1
  5 | 2
O=C(Nc1ccc(Cl)c(-c2nc3ccccc3o2)c1)c1ccccc1F
  -8 | -13
Cc1ccc(C2(c3ccc(C)o3)CCCCC2)o1
  8 | 6
CC(=O)NCCn1ccnc1-c1ccc(-c2ccco2)cc1
  2 | 37
Cc1noc(C)c1CN(C)C(=O)NCCc1cccc(F)c1
  1 | 1
Fc1ccccc1N1CCC(NCCNc2cccnc2)CC1
  9 | 6
C=C(C)CN1N=C(C)Cn2c1nc1c2c(=O)n(Cc2ccccc2C)c(=O)n1C
  0 | 7
CC(=O)Nc1ccc(CN(C)c2c(C)nc3ccc(C(=O)N(C)CCN(C)C)cn23)cc1
  9 | -4
O=C(NCc1nnc(-c2ccccc2)o1)c1cccc2c1NCCC2
  -6 | -8
O=C(c1ccnc(-c2ccc(Cl)cc2Cl)c1)N1CCOCC1
  5 | 2
CC(C)N1CCC(N2CCN(Cc3ccccn3)CC2CCO)CC1 (configuration not stated)
  -4 | -12
COc1ccc(CNC(=O)Nc2ccc3c(c2)OCCO3)cc1
  -23 | -25
Cc1cc(C)c(C)c(SCC(=O)N2CCNC(=O)C2)c1C
  7 | 6
Cc1ccc2nc(COC(=O)c3ncc(Cl)c(Cl)c3Cl)cc(=O)n2c1
  5 | 13
Cc1ccc(S(=O)(=O)Nc2cc(Cl)ccc2F)cc1C
  3 | 7
COCCNc1cc(C(C)(C)C)nc2c(-c3ccc(Cl)cc3)c(C)nn12
  24 | 21
CCN(CC(=O)NC1CCS(=O)(=O)C1)Cc1nc2ccccc2n1C (configuration not stated)
  -5 | -5
O=C(Nc1nnc(-c2ccc(Cl)cc2)s1)C1CCCN1C(=O)Nc1ccc(Cl)c(Cl)c1 (configuration not stated)
  14 | 2
CCn1cc(C#N)c(=O)n(CC(=O)c2ccc3c(c2)OCCO3)c1=O
  0 | 0
Cc1nc(-c2nc(N(C)C)nc(N(C)C)n2)no1
  1 | -1
COC(=O)c1cc(C)sc1NC(=S)Nc1cnn(C)c1C(N)=O
  -7 | -16
S=C(SC1OCCOC1SC(=S)N1CCOCC1)N1CCOCC1 (configuration not stated)
  1 | -1
O=[N+]([O-])c1cc(S(=O)(=O)N2CCOCC2)ccc1NC1CCS(=O)(=O)C1 (configuration not stated)
  -2 | 18
COc1ccc(NC(=S)NC2CCCCC2)cn1
  -4 | -3
N#Cc1ccc(-c2ccc(OCC(=O)c3ccc4c(c3)CC(=O)N4)cc2)cc1
  0 | 2
Cc1nc(CCC(=O)N2CCCN(Cc3ccc(F)cc3)C(C(C)C)C2)n[nH]1 (configuration not stated)
  4 | 1
Fc1ccc(-c2noc3nc(OCc4ncccn4)ccc23)cc1
  2 | -1
CCOC(=O)c1c(C)c(C(=O)CN(Cc2ccco2)C(=O)c2ccc([N+](=O)[O-])cc2)c(C)n1CC
  -10 | -9
Cc1ccc(N(CCCCN2C(=O)c3ccccc3C2=O)C(=O)c2cc([N+](=O)[O-])ccc2Cl)cc1
  5 | 5
Cc1ccccc1NC(=O)Cn1c(C)cc(=O)c2cccc(C)c21
  10 | 11
CCOCCCN(CC(=O)N(CCc1ccccc1)Cc1ccc(C)o1)C(=O)c1cccc(Br)c1
  0 | 7
O=C(Cc1ccccc1)NCCn1ncc2c(N3CCOCC3)ncnc21
  2 | 0
Cc1nn(C)c(Cl)c1S(=O)(=O)N1CCCC2(CCN(C)CC2)CC1
  -1 | -4
COCCN(C(=O)c1ccc(C#N)cc1)c1ccc(C(F)(F)F)cn1
  9 | 2
CC(=O)O[C@@H]1CC2C(C)(C)[C@H](O)C=C[C@]2(C)C2CC[C@@]3(C)[C@H](c4ccoc4)OC(=O)C4OC43[C@@]21C (some centres not stated)
  36 | 25
CC(=O)C(C)n1c(=O)c2c(nc3n(-c4cccc(C)c4)c(C)c(C)n23)n(C)c1=O (configuration not stated)
  -1 | -3
CCCCCCCCc1ccc(-c2ccc(C(=O)Nc3ccc(Cl)c4c3C(=O)c3ccccc3C4=O)cc2)cc1
  9 | 10
OC(CCCN1CCN(c2ncc(F)cn2)CC1)c1ccc(F)cc1 (configuration not stated)
  -7 | -13
CC(C)SCC(=O)NC(C1CC1)C1CC1
  20 | 16
COc1ccc(-c2cc(C(=O)O)c3[nH]c(C)nc3n2)cc1
  -3 | -3
CCCCn1c(=O)[nH]c(=O)c2c1nc(COC(=O)c1c(F)cccc1Cl)n2CCC
  -1 | -4
Cc1cc(OC(=O)CC2CCCCC2)c([N+](=O)[O-])c(=O)[nH]1
  3 | 2
CN1CCC(Cc2noc(C3CCCCO3)n2)CC1 (configuration not stated)
  3 | 2
CC1CC1C(=O)Nc1ccc(F)cc1C(=O)N1CCc2ccccc2C1 (configuration not stated)
  6 | 1
CCC(C)N(Cc1ccc(OS(=O)(=O)c2ccc(F)cc2)cc1)C(=O)c1ccccc1Cl (configuration not stated)
  1 | 8

Four entries drawn at random from those above:
Each structure is followed by: NPYLR7 ag | NPYLR7 ag max-min
COc1ccc(-c2cc(C(=O)O)c3[nH]c(C)nc3n2)cc1
  -3 | -3
CCCCn1c(=O)[nH]c(=O)c2c1nc(COC(=O)c1c(F)cccc1Cl)n2CCC
  -1 | -4
CC(=O)C(C)n1c(=O)c2c(nc3n(-c4cccc(C)c4)c(C)c(C)n23)n(C)c1=O (configuration not stated)
  -1 | -3
CN1CCC(Cc2noc(C3CCCCO3)n2)CC1 (configuration not stated)
  3 | 2

Additional entries follow.
compound | NPYLR7 ag | NPYLR7 ag max-min
COc1cccc(NC(=O)CCC2CCN(Cc3cc4ccccc4o3)CC2)c1 | 13 | 7
CN(C(=O)NC1CCCCC1)C1CCN(c2ccccn2)CC1 | 11 | 10
O=C(CN1CCCCCC1)Nc1cccc2ncccc12 | 1 | 0
CCCN(Cc1ccccc1)C(=O)/C=C/CN(C)C | 1 | -1
N#CCCC(C#N)Cn1nc(-c2ccc(Br)cc2)c2ccccc2c1=O (configuration not stated) | 0 | -1
Cc1c(C(=O)N(C)C)cnn1-c1ccc(F)cc1 | -2 | 7
COc1ccc(-c2cc(C(=O)NCCc3ccc(Cl)cc3Cl)n(-c3ccc(F)cc3)n2)c(OC)c1 | 21 | 20
COc1ccc(CNC(=O)Cn2nc3c(c2NC(=O)c2cnccn2)CSC3)cc1 | -4 | -1
OCc1ccc(-c2nccn2CC2COc3ccccc3O2)o1 (configuration not stated) | 2 | -6
COCc1cc(N2CCOCC2)nc(SCc2ccc(C(=O)NCc3ccc4c(c3)OCO4)o2)n1 | 14 | 17
Cc1cc(C)c(Cn2ccnc2CN(C(=O)c2ccc(F)cc2)C2CC2)c(C)c1 | 11 | 22
COc1ccc(CN(CCc2c[nH]c3ccccc23)C(=O)CN(CC(C)C)C(=O)/C=C/c2ccc([N+](=O)[O-])cc2)cc1 | 16 | 25
O=C(NCCn1ncccc1=O)c1ccccc1 | 1 | 1
CCCS(=O)(=O)CC(=O)N(C)Cc1ccccc1-c1ccccc1 | 4 | 5
CCC(=O)Nc1cccc(C(=O)NCCc2cc(C)ccc2C)c1 | 14 | 9
Clc1ccc(-c2nc(C3CCCCC3)no2)cc1 | -5 | -9
O=C(Nc1ccc(NC(=O)C2CC2)cc1)c1ccco1 | 10 | 19
CC(=O)c1ccc(C(=O)NCc2csc(C)n2)cc1 | 3 | 2
Cc1cc(O)cc(C)c1CN1CCOC(CCCc2ccccc2)C1 (configuration not stated) | 15 | 12
Cc1ccc(-c2cc3c(=O)n(CC(N)=O)ncn3n2)cc1C | -12 | -17
O=C(NCc1ccccc1F)c1ncc(Cl)c(Cl)c1Cl | 2 | 0
CCOC(=O)c1cc(-c2cccc(NC(=O)COc3ccc(Cl)cc3)c2)n(-c2ccccc2C)n1 | 20 | 7
COc1cc(=O)n(-c2ccc(C)cc2)nc1C(=O)NCC(OC)OC | 6 | 1
C=CC[C@H]1CC(C)=C[C@H](CC=C)N1Cc1ncccc1C(=O)O | 4 | 3
CCN(CCC(F)(F)F)C(=O)CCc1ccc2c(c1)OCCCO2 | 0 | -10
CCCC(=O)c1cn(CC(=O)N2CCC3(CCCO3)CC2)c2ccccc12 | 5 | 3
CC(C)CC(=O)N(Cc1csc(COc2ccc(Cl)cc2)n1)C(C)C | 14 | 17
CCc1ccc(S(=O)(=O)NCCCn2nc(-c3ccc(OC)cc3)ccc2=O)s1 | -1 | -2
O=C(CCNc1ccccc1)N1CCN(C(=O)c2cc(Cl)cc(Cl)c2)CC1 | -1 | -1
Cc1ccc2[nH]c3c(cc(Nc4ccccc4)c4c(=O)c5ccccc5c(=O)c43)sc2c1 | -3 | -3
COc1ccccc1C1=NN(C(=O)CN2CCOCC2)C(c2ccccc2)C1 (configuration not stated) | 14 | 14
CCC(C)NC(=O)C(NC(=O)c1cccc(C)c1)C1CCN(S(=O)(=O)C(C)C)CC1 (configuration not stated) | 11 | 14
CC(C)Cc1cc(C(=O)N2CCOC(c3ccc(Cl)c(Cl)c3)C2)n[nH]1 (configuration not stated) | -6 | -12
CCNC(=S)N(CCOC)Cc1c(-c2ccccc2)noc1N1CCCCC1C (configuration not stated) | 4 | 8
Cc1cc(=O)n2nc(C(F)(F)F)n(CC(=O)N3CCC(C)CC3)c2c1 | 7 | 0
Cc1onc(-c2c(F)cccc2Cl)c1C(=O)N1CCC(c2ccc(F)cc2)CC1 | -3 | -8
COc1ccccc1NC(=O)N(Cc1ccc(OS(=O)(=O)c2ccc(F)cc2)cc1)C(C)C | 8 | 15
O=C(c1ccc(C(F)(F)F)c(F)c1)N1CCN(CCCOC(c2ccc(Cl)cc2)c2ccc(Cl)cc2)CC1 | 0 | -2
CCCn1nnnc1COC(=O)c1ccc(C)c(S(N)(=O)=O)c1 | 1 | 0
COc1nc(Oc2ccc(=O)[nH]n2)nc(N(C)C)n1 | 11 | 10
Cc1sc2nc(CSCC(=O)c3cc(C)n(C)c3C)[nH]c(=O)c2c1C | 5 | 10
CCc1c(C(=O)NC(C)C)c(CC(C)C)nn1-c1ccccc1C | -5 | -7
COc1ccc(C(=O)C2CCCN(Cc3cn[nH]c3-c3ccc(F)cc3)C2)cc1OC (configuration not stated) | 0 | -10
CCn1nc(C)c(CNC(=O)Cc2ccc3nc(C)[nH]c3c2)c1C | 1 | -4
CN(C(=O)c1cnn2c1CCCC2)[C@@H]1CCN(Cc2ccccc2)C1 | 6 | 3
CC(C)CC(NC(=O)c1ccccc1)C(=O)N1CCC(n2c(=O)[nH]c3ccccc32)CC1 (configuration not stated) | -8 | -14
COc1cccc(Nc2nc(C(N)COCc3ccccc3)cs2)n1 (configuration not stated) | -2 | -8
CN1CCN(n2c3c(c(SCC(=O)N4CCN(c5ccccc5)CC4)nc2=O)CCCC3)CC1 | 0 | -8
CCN(CC)CCN(C(=O)C1=COCCO1)c1nc2c(F)cc(F)cc2s1 | -3 | -6
CC(C)(C)NC(=O)N(CCN1CCOCC1)CC(=O)N1CCc2sccc2C1COc1ccc(F)cc1 (configuration not stated) | -4 | -1

Remaining list, next part
compound | NPYLR7 ag | NPYLR7 ag max-min
O=C1NC2(CCN(C(=O)C3CCCC3)CC2)Nc2cccc(Cl)c21 | 6 | 14
O=C(Nc1cccc(Cl)c1)C(C1CCCC1)N1CCN(C(=O)CCc2ccccc2)CC1 (configuration not stated) | -1 | 6
Cc1cnc(=O)[nH]c1SCC(=O)N1CCCC1 | 5 | 2
COc1cccc(NC(=O)N2CCC3(CC2)NC(=O)c2ccc(Cl)cc2N3)c1 | 0 | 8
CCOC(=O)CC1=Nc2cc(C)c(C)cc2N(CC(=O)Nc2cccc(C)c2Cl)C(=O)C1 | -10 | -11
CCS(=O)(=O)CC(C)N(C)C(=O)NCC1CC2CCC1C2 (configuration not stated) | -2 | -10
COc1ccc(C=CC(=O)Nc2nnc(C)s2)cc1 | 4 | 1
O=S(=O)(c1cc(Cl)cc(Cl)c1O)N1CCCC(C(F)(F)F)C1 (configuration not stated) | 5 | 0

Not all compounds are listed (hit frequency here may not be typical).
